Screening data from PubChem.
Arbovirus anti: arbovirus infection inhibition; arbovirus infection cell-based antiviral screen; inhibition, % at 10 µM; 200,000 tested, 0.37% active;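 active = inhibition from about 30%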;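 also: bluetongue infection of BSR cells; cell survival read as ATP light after 72 h; 0% = infected wells without compound and 100% = uninfected wells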
YopH PTP inh: blocks Yersinia enterocolitica YopH tyrosine phosphatase; 140,000 tested, 0.16% active; fluorescence Ex485/Em525; inhibition, %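 (about 10 µM by stock and volumes)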;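 active = inhibition of 50% or more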;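 also: controls were vehicle for no effect and minimum signal wells for full effect; inactives centre near -20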
RecA intein inh: Mtb RecA intein splicing inhibition. AID 2221. inhibition, %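 (about 9 µM by stock and volumes)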. P9WHJ3. 290,000 tested, 0.75% active. cell-free RecA intein splicing, fluorescence; in the data active = inhibition above about 30%; inconclusive = no clear call, values can overlap the other calls;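 also: 0% = vehicle wells and 100% = reference inhibitor control wells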
Target sequence (P9WHJ3 whole entry, looked up): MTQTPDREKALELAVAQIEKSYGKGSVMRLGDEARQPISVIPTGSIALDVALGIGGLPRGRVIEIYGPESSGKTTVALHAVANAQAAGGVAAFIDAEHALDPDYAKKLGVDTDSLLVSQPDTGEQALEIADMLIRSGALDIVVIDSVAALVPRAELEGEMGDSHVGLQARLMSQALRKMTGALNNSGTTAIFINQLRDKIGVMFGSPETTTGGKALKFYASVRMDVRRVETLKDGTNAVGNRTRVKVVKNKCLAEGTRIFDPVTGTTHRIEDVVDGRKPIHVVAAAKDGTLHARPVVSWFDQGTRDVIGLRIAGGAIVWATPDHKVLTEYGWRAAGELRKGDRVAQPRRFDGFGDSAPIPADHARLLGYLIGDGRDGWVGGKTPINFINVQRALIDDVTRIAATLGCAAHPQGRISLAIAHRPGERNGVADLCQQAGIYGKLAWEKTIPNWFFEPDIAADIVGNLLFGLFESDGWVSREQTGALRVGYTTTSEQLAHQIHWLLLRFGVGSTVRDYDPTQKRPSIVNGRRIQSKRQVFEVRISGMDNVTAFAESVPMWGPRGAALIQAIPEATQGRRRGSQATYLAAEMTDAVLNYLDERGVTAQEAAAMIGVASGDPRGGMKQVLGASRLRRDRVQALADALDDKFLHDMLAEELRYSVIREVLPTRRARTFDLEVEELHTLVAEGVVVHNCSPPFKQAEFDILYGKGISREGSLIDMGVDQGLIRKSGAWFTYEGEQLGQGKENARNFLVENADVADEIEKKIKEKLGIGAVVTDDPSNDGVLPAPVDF
Mtb H37Rv: M. tuberculosis H37Rv growth inhibitors, H37Rv strain (AID 1626) | M. tuberculosis H37Rv growth inhibition; higher % means a stronger effect | one-dose inhibition, % at 10 µM; IC50 in µM for titrated hits | 220,000 tested, 0.95% active;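 active = confirmed in a dose series; inconclusive = inhibition above 80% but not taken into the dose series; inactive = below 80% or under 30% at every dose of the series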;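 also: bacteria incubated seven days before Alamar blue readout; 0% = bacteria only wells and 100% = bacteria with antibiotic wells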
Mtb bLac sens: beta-lactam sensitization of Mtb H37Rv; AID 434955; 330,000 tested, 0.27% active; inhibition, % at 25 µM; M. tuberculosis H37Rv growth with meropenem, percent inhibition; hits of this screen are not shown here;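 active = about 74% or more and at least 40 points above the plate without the antibiotic, then above 30% in a dose series; inconclusive = first-round hits that could not be retested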;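 also: growth measured after seven days incubation then overnight dye step; 0% = bacteria only wells and 100% = bacteria with antibiotic; twin plates without the antibiotic show which effects depend on it; some results filed as inactive read as strong as hits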
Arbovirus anti repeat: recorded beside Arbovirus anti, whose call it bears; inhibition, %; measured here: 10K subset replicate screen; many hits read low in the repeat;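 first of two repeat runs on a subset; 0% = infected and 100% = uninfected wells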
* hit, by the source's call; ? = inconclusive; · = not tested or not shown. Not all compounds are listed; the hit share may differ from the screen's.

SMILES	Arbovirus anti	YopH PTP inh	RecA intein inh	Mtb H37Rv	Mtb bLac sens	others
CCCCC(=O)NC(NC(=S)N1CCCCCC1)C(Cl)(Cl)Cl (stereo not given)	14	-17	14	-3%	3
COc1cc2cc(/C=C/C(=O)c3ccco3)c(Cl)nc2cc1OC	5	-9	0.6	-1%	96
CCS(=O)(=O)n1nc(-c2ccccc2)nc1N	-5	5	-0.2	-2%	6
Cc1ccc(NC(=O)CSc2nnc(CSc3nc(C)cc(C)n3)n2Cc2ccco2)c(C)c1	2	8	-0.5	-3%	-4
Cc1ccc(CCNC(=O)CCS(=O)(=O)c2ccc(Br)cc2)cc1	-4	·	-1.4	0%	-2
Oc1ccc(/C=N/Nc2ccc(Cl)nn2)c(O)c1O	·	·	2.4	·	3
COc1ccccc1OCC(=O)/C=C1/N(C)c2ccccc2C1(C)C	2	·	7.0	5%	3
Cc1ccc(/C=C2/NC(=O)N(Cc3ccccc3)C2=O)s1	6	-45	-1.5	-3%	-7
O=C(COC(=O)c1ccccc1NC(=O)c1ccco1)NCCC1=CCCCC1	-9	-18	1.0	-3%	-4
CC(=O)OCc1c(C(F)(F)F)nn(C)c1SCc1ccc(Cl)cc1	-14	7	11	3%	-4

5 entries picked at random from the list so far:
SMILES	Arbovirus anti	YopH PTP inh	RecA intein inh	Mtb H37Rv	Mtb bLac sens	others
Cc1ccc(NC(=O)CSc2nnc(CSc3nc(C)cc(C)n3)n2Cc2ccco2)c(C)c1	2	8	-0.5	-3%	-4
Cc1ccc(CCNC(=O)CCS(=O)(=O)c2ccc(Br)cc2)cc1	-4	·	-1.4	0%	-2
CCCCC(=O)NC(NC(=S)N1CCCCCC1)C(Cl)(Cl)Cl (stereo not given)	14	-17	14	-3%	3
COc1ccccc1OCC(=O)/C=C1/N(C)c2ccccc2C1(C)C	2	·	7.0	5%	3
CCS(=O)(=O)n1nc(-c2ccccc2)nc1N	-5	5	-0.2	-2%	6

Next results
SMILES	Arbovirus anti	YopH PTP inh	RecA intein inh	Mtb H37Rv	Mtb bLac sens	others
O=C(COc1ccc([N+](=O)[O-])cc1Cl)Nn1cnnc1	·	·	0.1	5%	2
CCOC(=O)C1=C(c2ccccc2)NC(SCC(=O)Nc2ccc(C)cc2)=C(C#N)C1c1ccco1 (stereo not given)	-16	-18	-2.2	-5%	-4
O=C(CCCc1ccccc1)Nc1ccccn1	-1	·	1.5	-2%	-14
Cc1cccc(CN2C(=O)/C(=C\c3ccc(C(=O)NCCN4CCOCC4)cc3)Sc3ccccc32)c1	·	·	6.2	·	64
COC(=O)c1sccc1NC(=O)C1C2C=CC(C2)C1C(=O)O (stereo not given)	4	-36	0.7	-5%	-10
Cc1cc(-c2ccc(C)c(S(=O)(=O)NCc3ccc(OC(C)C)cc3)c2)on1	·	·	2.8	·	0
COC(=O)[C@]1(Cc2ccccc2)N[C@H](c2ccc(-c3cccc(Cl)c3)cc2)[C@@H]2C(=O)N(C)C(=O)[C@@H]21	·	·	27	·	4
CC1CCCCC1NC(=O)C(Cc1ccccc1)NS(=O)(=O)c1cccs1 (stereo not given)	11	-16	-1.9	-2%	4
COc1ccc(NC(=O)c2cc(Cl)ccc2NC(=O)c2ccco2)c(OC)c1	-2	5	-0.9	1%	-7
O=C(C1CCCN(S(=O)(=O)c2ccc([N+](=O)[O-])cc2)C1)N1CCCCC1 (stereo not given)	·	·	-2.3	·	-4
Cc1cccc(-n2ncc3c(NCCCn4ccnc4)ncnc32)c1	-6	-9	-2.0	7%	3	Arbovirus anti repeat=-3
Cc1cc(OCC(=O)N2CCOCC2)ccc1[N+](=O)[O-]	·	·	-0.5	-8%	0
CCOc1ccc(S(=O)(=O)NCc2ccccn2)cc1NC(=O)c1ccccc1F	·	·	-2.0	·	0
NC(=O)c1nsc(C(=O)N(c2ccc(Cl)cc2)C(C(=O)NCC2CCCO2)c2cccs2)c1N (stereo not given)	-3	·	-0.5	-5%	-1
O=S(=O)(NC1=NCCC1)c1cccs1	1	-12	-1.4	-4%	1
O=C(NC(=S)Nc1ccc(N2CCCC2)cc1)c1ccc(F)cc1	·	·	1.0	·	?
Cc1c2ccncc2c(C)c2c1[nH]c1ccccc12	-45	-16	?	0.47µM*	100
CCN(c1ccccc1)P(=O)(Nc1ccccc1)Nc1ccccc1	·	·	6.0	5%	-6
O=C(C1=C[C@@H](c2ccc(Br)cc2)C[C@@H](OCc2ccc(CO)cc2)O1)N1CCN(Cc2ccc3c(c2)OCO3)CC1	-14	·	9.4	17%	·
Cc1cc([N+](=O)[O-])nn1CC(=O)Nc1ccc(Cl)cn1	1	·	0.0	4%	-4
COc1ccccc1NC(=O)N1CCCC1C(=O)NCc1ccccc1Cl (stereo not given)	·	·	-2.7	·	-12
CCOC(=O)C1(Cc2ccc(Cl)cc2)CCN(Cc2nccn2CC)CC1	8	·	5.2	7%	1
COCCNC(=O)C(=O)NCC1OCCN1C(=O)c1ccc(Cl)cc1 (stereo not given)	8	-14	-1.0	-5%	-1
O=C(NCCc1nc2ccccc2[nH]1)/C(=C/c1ccc2c(c1)OCO2)NC(=O)c1ccccc1	-4	-30	1.8	2%	-3
O=C(COC(=O)Cc1cccs1)Nc1ccc(F)c(F)c1F	9	-23	2.5	-1%	-3
O=C(Nc1ccc(Br)cc1)c1cc(S(=O)(=O)Nc2ccccn2)ccc1Cl	·	·	0.4	·	-5
COc1cc(NS(=O)(=O)c2ccc(NC(=O)/C=C/c3ccc([N+](=O)[O-])cc3)cc2)ncn1	5	·	1.7	-9%	2
COc1cccc(C(=O)c2c[nH]c(C(=O)NCCCN(C)C)c2)c1	3	·	1.0	4%	-2
Clc1ccc(N=c2ssnc2Cl)cc1	2	6	-1.7	-8%	?
CC1(C)C([N+](=O)[O-])C(c2ccccc2O)NC(c2ccccc2O)C1[N+](=O)[O-] (stereo not given)	-18	·	2.5	-4%	7
O=c1[nH]c(CSc2nc3ccccc3s2)nc2ccccc12	·	·	-3.6	3%	-4
O=C(NC1CCCCC1)Oc1cc2oc(=O)sc2cc1Cl	·	·	23	3%	-4
COCCNC(=O)c1ccc(CN2CCOCC2)cc1	11	1	2.2	-6%	-11
COc1ccc(CCNC(=O)CSc2nnc(Cc3cccn3C)n2C)cc1OC	3	·	2.0	-3%	-4
COc1ccc(OC)c(S(=O)(=O)N2CCN(c3ccccc3OC)CC2)c1	·	·	0.0	·	-5
Cc1cc2c(OCC(O)CNCc3ccco3)cccc2[nH]1 (stereo not given)	·	·	0.0	·	1
Cc1cc(NC(=O)c2cnn3cccnc23)nn1CC(=O)Nc1cccnc1	-2	-35	-0.7	-3%	-1
COc1cc(C(=O)O/N=C2/C=C(C)C(=O)C=C2C)cc(OC)c1OC	1	-31	0.3	?	94
CCc1noc(C)c1C(=O)Nc1nc(-c2ccc(OC)c(OC)c2)cs1	·	·	1.3	·	21
COc1cc(CO)ccc1Oc1nnnn1-c1ccc(C(N)=O)cc1	0	-20	·	-5%	1
CN=C(C)/C(C(=O)OC)=C(/O)c1ccc(Cl)cc1Cl	·	·	-0.1	-5%	17
N#C/C(=C/c1ccc(CNC(=O)C(=O)Nc2cc(Cl)cc(Cl)c2)o1)C(=O)NCc1cccnc1	-12	-24	3.8	-4%	5
Cc1cccc(C)c1-n1c(C)cc(/C=C2\C(=O)NN(c3ccccc3)C2=O)c1C	-9	-24	-3.2	24%	·
NC(=S)Nc1cccc(-c2n[nH]c(=S)o2)c1	·	·	-0.1	·	4
O=C(Nc1cccc(S(=O)(=O)NC2=NCCC2)c1)C1CCCCC1	·	·	-1.7	-4%	-1
CCN(CC)CCCOc1ccc(C)cc1Br	-13	0	-5.3	-6%	-12
Cc1ccc(NC(=O)OCc2ccccc2S(C)=O)cc1 (stereo not given)	2	·	2.8	-5%	7
C/C(=N\OCc1ccc(C#N)cc1)c1ccc(S(=O)(=O)N(C)C)cc1	·	·	2.8	·	3
S=C(NCCC1=CCCCC1)Nc1ccccc1	9	-30	3.0	10%	81
N#CCSCC(=O)Nc1ccc(F)cc1	10	4	2.0	-3%	-2
Additional entries follow.
SMILES	Arbovirus anti	YopH PTP inh	RecA intein inh	Mtb H37Rv	Mtb bLac sens	others
C=CCNc1cnn(-c2ccc(C)cc2)c(=O)c1Cl	2	-27	1.0	4%	-5
CC1(C)CC(=O)C2=C(C1)OC(N)=C(C#N)C2c1ccoc1 (stereo not given)	0	·	-0.1	-7%	0
CC(=O)c1ccc(NC(=O)COC(=O)CCN2C(=O)c3cccc([N+](=O)[O-])c3C2=O)cc1	0	-15	-1.8	-2%	0
CCOC(=O)CN1C(=O)C(CC)Oc2ccccc21 (stereo not given)	-3	-44	2.5	-1%	15
CCC(=O)Nc1cccc(C2=NN(c3ccccc3)C(c3ccc(OC)cc3)C2)c1 (stereo not given)	·	·	-5.4	·	4
COc1ccc(C2=C(C=O)Cc3ccccc3O2)cc1	·	·	0.1	·	5
CC1(C)Cc2c(sc(NC(=O)Nc3ccccc3)c2C(N)=O)CO1	·	·	-2.2	·	-2
CCOC(=O)N1CCC(N2CCN(S(=O)(=O)c3ccc(OC)cc3)CC2)CC1	1	·	-0.4	-4%	3
CCCN(CCO)Cc1ccc(Br)cc1	5	22	1.5	0%	-3
Cc1ccc(Cl)cc1N1CCN(C(=O)Cc2c(C(=O)O)[nH]c3ccc(Cl)cc23)CC1	23	·	0.1	-1%	2
COc1ccc(NC(=O)C2=CC(c3ccco3)=NS(=O)(=O)N2C)cc1OC	·	·	3.0	·	3
Cc1cccc(C(C)C)c1NC(=O)COC(=O)CCN1C(=O)C2CC=CCC2C1=O (stereo not given)	·	·	3.1	·	8
COC(=O)c1ccc(C2NCCc3cc(OC)c(OC)cc32)cc1 (stereo not given)	·	·	-0.6	·	5
COC(=O)c1cccc(NC(=O)NC(=O)c2ccc(Cl)cc2)c1	·	·	-0.4	·	1
CCn1c(=S)[nH]c2sc3c(c2c1=O)CCCCC3	-10	·	-0.8	10%	5
O=C(NCCCN1CCCC1=O)Nc1ccc(Br)cc1Cl	·	·	-3.9	·	-14
CCC(CC)C(=O)Nc1cccc(C(=O)Nc2nnc(C)s2)c1	2	·	-2.4	7%	4
COc1ccc(/C=C2/SC(=S)N(CCCC(=O)Nc3ccc(O)cc3)C2=O)cc1OC	·	·	5.1	·	16
COc1ccc(-c2cc(C(=O)N(C)CCc3ccc(OC)c(OC)c3)c3ccccc3n2)cc1	·	·	0.6	·	6
CCn1c(SCC(=O)N(C)c2c(N)n(Cc3ccccc3)c(=O)[nH]c2=O)nc2ccccc21	·	·	2.8	12%	-6
COc1ccc(NC(=O)c2c(C)cc(=O)oc2C)c(OC)c1	-2	-23	-0.3	-13%	-4
Cc1cc(C)cc(NC(=O)c2oc3ccccc3c2COc2ccccc2)c1	13	0	-4.1	11%	10
Nc1[nH]nc2nc(N3CCCC3)nc(-c3ccccc3)c12	-1	-34	3.7	-8%	-5	Arbovirus anti repeat=5
O=C(NNC(=O)C1CC2CCC1C2)c1ccccc1 (stereo not given)	-8	-13	0.1	-7%	-3
O=C(CCN1C(=O)C2C3C=CC(C3)C2C1=O)N1CCN(c2ccccn2)CC1 (stereo not given)	7	-15	-5.0	-3%	-7
CC1CCC(NC(=O)C2COc3ccccc3O2)CC1 (stereo not given)	·	·	0.8	·	-11
C/C(=N/NC(=S)Nc1cccc(C)c1)c1cccc([N+](=O)[O-])c1	18	·	-0.7	38%	94
Cc1nn(-c2nc3ccccc3s2)c(N)c1Sc1ccc(F)cc1	0	-45	1.3	11%	5
COc1cc(-c2ccccc2)nc2ccccc12	-4	-21	8.4	-8%	4
O=C(N/N=C/c1cccc([N+](=O)[O-])c1)c1nc2ccccc2c(=O)[nH]1	·	·	12	1%	-3
O=C(Cn1sc2ccccc2c1=O)N1CCN(C(=O)c2ccco2)CC1	·	·	-0.1	·	-5
COc1ccc(Cc2nnc(SCC(=O)NC3CCCC3)o2)cc1	7	-21	-1.6	6%	26
Cc1cc(S(=O)(=O)N2CCCOC2CNC(=O)C(=O)NCc2ccco2)ccc1F (stereo not given)	1	·	-0.8	8%	0
O=C(COC(=O)C1CCC1)Nc1cccc(S(=O)(=O)N2CCOCC2)c1	·	·	1.8	·	-12
Cc1c(/C=N/NC(=O)c2cc(=O)[nH]c(=O)[nH]2)c2ccccn2c1C(=O)c1ccccc1	14	3	7.1	9%	3
CC1CC(C)CN(C(=O)Nc2ccccc2F)C1 (stereo not given)	·	·	4.4	-3%	-10
COc1ccc(CNc2ncnc3sccc23)cc1OC	·	·	-3.3	·	4
COc1ccc(CCNC(=S)NNC(=O)c2c(Br)c(C)nn2C)cc1OC	·	·	1.9	·	-1
CC(Oc1ccc(Cl)cc1Cl)C(=O)NCCN1CCOCC1 (stereo not given)	-2	-37	0.5	-4%	-4	Arbovirus anti repeat=-2
